D2 agonist: Beta-Arrestin HTS for Positive Allosteric Modulators of the Human D2 Dopamine Receptor: Agonists. D(2) dopamine receptor (Homo sapiens), P14416. DiscoveRx PathHunter D2 beta-arrestin, luminescence, 90 min; 100% = 57 uM dopamine signal. activation, % (test concentration not listed). 360,000 tested, 0.084% active; in the data active = activation above about 40%; inconclusive = about 15% to 40%; inactive = below about 15%; also: compound concentration not given in the record; the text of the record calls up to 30% inactive
Target sequence (P14416 whole entry, looked up): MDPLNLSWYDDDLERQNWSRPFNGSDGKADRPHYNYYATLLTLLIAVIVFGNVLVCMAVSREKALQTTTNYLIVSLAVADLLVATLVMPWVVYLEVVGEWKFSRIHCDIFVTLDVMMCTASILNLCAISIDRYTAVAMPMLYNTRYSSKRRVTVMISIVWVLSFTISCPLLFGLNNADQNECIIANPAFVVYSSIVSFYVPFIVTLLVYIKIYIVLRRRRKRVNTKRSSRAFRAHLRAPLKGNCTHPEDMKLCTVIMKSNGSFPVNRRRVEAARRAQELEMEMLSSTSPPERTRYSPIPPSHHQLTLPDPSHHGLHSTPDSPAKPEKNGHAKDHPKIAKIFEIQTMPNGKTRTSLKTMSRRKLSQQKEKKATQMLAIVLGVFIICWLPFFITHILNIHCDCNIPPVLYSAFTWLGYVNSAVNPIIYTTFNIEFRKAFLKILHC
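DiscoveRx PathHunter D2 beta-arrestin cells (2,100/well) attached overnight, then compound-stimulated 90 min at 37 C in HBSS/10 mM HEPES/0.1% Tween-20 buffer; beta-galactosidase complementation read by luminescence after 1 h at ambient temperature. Dopamine 57 uM final (EC100) as control.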
Six1-Eya2 inh: qHTS Assay for Inhibitors of the Six1/Eya2 Interaction | AID 651725, 2012 | activity change, % (concentration not given with the values) | 360,000 tested, 0.56% active | AlphaScreen GST-Six1/His-Eya2 binding, biochemical; hits give low values; control for the full effect not named in the record | Homeobox protein SIX1 (Homo sapiens) + Protein phosphatase EYA2 (Homo sapiens), …; in the data active = activity change below about -65%; inconclusive = about -30% to -65%; inactive = above about -30%; also: % is scaled to controls: 0 for no effect and ±100 for the full control effect
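AlphaScreen luminescence read after one hour at 37 °C in darkness. Pin-transferred compounds met GST-Six1 and His-Eya2 protein (5X stock 250 nM/500 nM) plus glutathione donor and Ni-chelate acceptor beads (5X, 50 ug/mL).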
TRPML1 blocker: qHTS for Inhibitors of the Human Mucolipin Transient Receptor Potential 1 (TRPML1). 390,000 tested, 0.02% active. Mucolipin-1 (Homo sapiens), Q9GZU1. activity change, negative = inhibition, % (concentration not given with the values). AID 624415, 2012. TRPML1-inducible cells, Ca2+ dye fluorescence, FDSS; hits give low values; inhibition of EC80 agonist-evoked calcium signal; in the data active means activity change below about -50%; inconclusive means about -30% to -50%; inactive means above about -30%;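 also: stimulus is agonist 54-4 at its EC80 concentration; % is scaled to controls: 0 for no effect and ±100 for the full control effect; compound concentration not given in the record; the text of the record puts the active cut at -80%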
Target sequence (Q9GZU1 whole entry, looked up): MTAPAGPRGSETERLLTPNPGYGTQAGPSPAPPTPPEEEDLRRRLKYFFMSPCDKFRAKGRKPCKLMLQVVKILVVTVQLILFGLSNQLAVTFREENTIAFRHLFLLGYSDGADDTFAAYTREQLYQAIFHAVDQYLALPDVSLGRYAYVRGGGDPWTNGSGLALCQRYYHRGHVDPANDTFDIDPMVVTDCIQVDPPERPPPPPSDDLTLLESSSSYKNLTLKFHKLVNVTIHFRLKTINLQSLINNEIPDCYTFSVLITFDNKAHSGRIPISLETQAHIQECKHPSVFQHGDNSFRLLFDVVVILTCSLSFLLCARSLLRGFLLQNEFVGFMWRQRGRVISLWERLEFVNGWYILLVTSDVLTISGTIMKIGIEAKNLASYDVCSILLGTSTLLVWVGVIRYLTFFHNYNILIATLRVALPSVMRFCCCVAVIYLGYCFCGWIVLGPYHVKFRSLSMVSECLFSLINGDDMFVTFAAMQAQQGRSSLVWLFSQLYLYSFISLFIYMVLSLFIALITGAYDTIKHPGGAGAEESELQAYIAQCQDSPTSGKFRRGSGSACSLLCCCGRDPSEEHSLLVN
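Tet-induced TRPML1-DL cells loaded with Ca8 no-wash calcium dye were read kinetically on FDSS. Compound addition was followed by EC80 agonist 54-4 (4 uM final); inhibition was read over 110 s.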
D2 potentiator: Beta-Arrestin HTS for Positive Allosteric Modulators of the Human D2 Dopamine Receptor: Potentiators; DiscoveRx D2 beta-arrestin cells, luminescence, 90 min; 100% = 57 uM dopamine signal; potentiation, % (no concentration beside the values); AID 624464, 2012; D(2) dopamine receptor (Homo sapiens), P14416; 360,000 tested, 0.23% active; active = potentiation of 50% or more; inconclusive = 30% to 50%; inactive = 30% or less;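 also: compound concentration not given in the record; tested on top of an EC20 dose of dopamine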
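PathHunter beta-arrestin assay in DiscoveRx D2 cells. Compounds were added with an EC20 of dopamine (50 nM final) for 90 min at 37 deg C. Luminescence was read 1 h after detection reagent, with 57 uM dopamine as the EC100 control.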
TRPML1 ag: qHTS for Agonists of the Human Mucolipin Transient Receptor Potential 1 (TRPML1) | 410,000 tested, 0.12% active | activation, % (concentration not given with the values) | Mucolipin-1 (Homo sapiens), Q9GZU1 | TRPML1-expressing cells, Ca2+ dye fluorescence, FDSS; host cell line not named in the record; reference of the full effect not given here | AID 624414, 2012; in the data active = activation above about 50%; inconclusive = about 30% to 50%; inactive = below about 30%; also: 0% is about no effect; the text of the record puts the active cut at 80%
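TRPML1-DL cells, Tet-induced overnight (~16 h, 37 degrees C), loaded 45-90 min at room temperature with Ca8 no-wash calcium dye plus quencher. FDSS fluorescence: 10 s baseline, compound pin-transfer, 110 s agonist read, then EC80 54-4 (4uM final) and 110 s antagonist read.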
PINK1 modulator: A Quantitative High throughput Screen to Identify Chemical Modulators of PINK1 Expression | PINK1 immunofluorescence, high-content cytometry, 24 h | Potency, µM (series often up to 76.6 µM), for the others: at the highest dose activation (PINK1 increase), most hits filed as activators | 410,000 tested, 0.2% active; active = well fitted activation curve with a large enough effect; inconclusive = small, poorly fitted or top-dose-only effect; inactive = flat fitted curve, though single readings scatter; cell line not stated here;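 also: potency is read from the fitted curve at half-maximal effect; % of control where 0% means no effect; nearly all actives have a fitted effect of over 65% in size; a mitochondrial uncoupler was the plate control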
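Stable cell line, 250 cells/well, 12 h attachment; compounds pinned at 5 concentrations, 24 h; CCCP control. Fixed with nuclear dye, primary antibodies 12 h at 10 degrees C, secondary plus cell stain; laser-scanning cytometer read.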
Starred values were filed as active, the others as inactive; u = inconclusive; x = no result given; [ ] = remark or other dose.

Each structure is followed by: D2 agonist	Six1-Eya2 inh	TRPML1 blocker	D2 potentiator	TRPML1 ag	PINK1 modulator
- CCN(CC)S(=O)(=O)c1ccc(-c2nnc(SCc3nnc(-c4ccccc4)o3)o2)cc1
 : 2.4	6	-6	-13	0.6	6.0%[38.3 µM]
- COc1ccc(S(=O)(=O)n2nc(OC(C)=O)cc2N)cc1
 : -2.2	-23	8	-3	-0.1	5.3%
- Cn1c(SCC(=O)N2CCN(c3ccccc3)CC2)nnc1-c1ccccc1
 : -4.3	-4	-7	-11	-0.3	-0.6%
- Cc1ccc2oc(/N=C(\N)NC(=O)C(C)(C)C)nc2c1
 : -11	-11	3	-22	2.2	4.3%
- O=C(NCCNC1CCCCC1)c1ccco1
 : -1.4	4	-16	-7	-0.1	0.6%
- Cc1ccc(C)c(NC(=O)c2cc(-c3cc(C)c(C)cc3O)n[nH]2)c1
 : 9.2	-13	-19	-6	1.4	5.5%
- COc1cc(CC(=O)O)c(C(C)=O)cc1OC
 : -0.9	10	-8	3	-0.6	-0.6%
- Cc1cc(C)n(-c2nc3ccccc3nc2N2CCN(S(=O)(=O)c3ccc(F)c(C)c3)CC2)n1
 : 0.4	0	-2	1	-0.6	x
- CC(C)CC(CC(C)C)=NNC(=O)c1ccc(CSc2nncn2C)cc1
 : 5.2	0	-2	4	0.2	0.4%
- COc1cc(O)c(C(=O)/C=C/c2ccccc2)c(OC)c1
 : -2.3	-1	x	-10	x	-1.3%
- COc1cc2c(cc1O)CCN(C(=O)c1ccco1)C2C (stereo unspecified)
 : -1.2	0	5	5	-0.6	0.7%[38.3 µM]
- Cc1c(/C=N/n2cnnc2)c2ccccc2n1CCOc1ccc(Cl)cc1
 : 3.0	1	21	6	-0.7	2.5%
- CCOc1ccc(CCNC(=O)COC(=O)c2cc(OC)c(OC)cc2[N+](=O)[O-])cc1OCC
 : -0.4	1	3	-31	0.3	0.1%
- O=S(=O)(c1cccc2cccnc12)N(CCO)CCO
 : -6.0	-1	0	-9	-0.1	2.8%
- CCOC(=O)C1=C(C)c2ccccc2OC1(C(=O)OCC)C(C)C (stereo unspecified)
 : -1.2	0	3	x	-0.2	5.9%
- C=CCn1nnnc1SCC(=O)Nc1cccc(OC)c1
 : 4.0	6	-1	8	1.1	-0.3%[38.3 µM]
- CC(=O)c1cccc(NC(=O)C2CCCN(S(=O)(=O)c3cccc4cccnc34)C2)c1 (stereo unspecified)
 : -6.0	-1	33	3	0.8	2.2%
- Cc1ccc(Cn2c(CCNc3nc(-c4ccc(Cl)c([N+](=O)[O-])c4)cs3)nc3cc(Cl)c(Cl)cc32)cc1
 : 1.0	-13	42	-6	-0.5	8.2%
- COc1ccc(S(=O)(=O)N2CCN(C(=O)c3ccc([N+](=O)[O-])o3)CC2)cc1
 : 2.9	-8	-19	20	-0.7	4.5%
- CCCOc1ccc(CNC(=O)CCCn2ncn3c(cc4sc(CC)cc43)c2=O)cc1
 : x	x	18	x	-0.2	0.6%

(more compounds)
Each structure is followed by: D2 agonist	Six1-Eya2 inh	TRPML1 blocker	D2 potentiator	TRPML1 ag	PINK1 modulator
- c1ccc2c(c1)CSc1ccccc1N2
 : -1.4	-1	25	-4	3.0	1.9%
- O=C(COC(=O)/C=C/c1ccc([N+](=O)[O-])cc1)NCc1cccs1
 : 10	7	-4	1	-0.1	2.0%
- O=C(O)c1cc(Cl)c(Cl)cc1C(=O)N(Cc1ccccc1)Cc1ccccc1
 : -2.9	-2	9	-17	-0.3	-0.8%
- CCN(C(=O)COC(=O)c1cc([N+](=O)[O-])ccc1N1CCCCC1)C1CCS(=O)(=O)C1 (stereo unspecified)
 : -5.0	7	-21	-7	-0.5	1.3%
- CCCn1cc(CN2CCC(n3nccc3NC(=O)CCOc3ccccc3)CC2)c(C)n1
 : 0.1	1	12	-13	0.6	-1.7%
- Cc1ccccc1OCC(=O)OCC(=O)NCC1CCCO1 (stereo unspecified)
 : 3.0	8	12	2	-0.2	4.8%
- O=C(NC1CC1)c1sc2cc([N+](=O)[O-])ccc2c1Cl
 : 2.8	-12	-17	18	0.9	4.8%
- COc1ccccc1N(C)S(=O)(=O)c1ccc(C(=O)N(CC(N)=O)C(C)C)cc1
 : -2.9	1	-1	-14	0.1	-1.9%
- CCN=C1S/C(=C\c2cn(CC)c3ccccc23)C(=O)N1CC
 : 5.2	-5	-4	3	-0.6	7.1%
- CCCN(CCC)CCNC(=S)Nc1ccc2nc3n(c(=O)c2c1)CCCCC3
 : -4.7	-1	43	-12	-0.4	-0.8%
- COc1ccccc1C(=O)CC(=O)C(=O)Nc1cccc([N+](=O)[O-])c1C
 : 1.0	-3	x	3	x	7.2%
- COc1ccc(F)cc1Cn1nc(C(=O)O)c2ccccc2c1=O
 : -6.2	4	-5	-5	2.2	0.2%
- c1ccc(-c2nc(CSc3n[nH]c(-c4cccs4)n3)cs2)cc1
 : -3.8	-3	-2	-9	0.9	5.1%[38.3 µM]
- Cc1ccc2c(c1)cc(CN(Cc1cccnc1)C(=O)NCc1ccccc1)c1nnnn12
 : 2.1	2	-11	6	0.8	-2.4%
- Cc1cccn2c(=O)c3cc(C(=O)NCC4CCCO4)c(=N)n(CC4CCCO4)c3nc12 (stereo unspecified)
 : -3.5	-3	22	-8	0.0	0.1%
- CCOc1ccc(NC(=O)[C@@H](NC(=O)c2ccccc2Br)C(C)C)cc1
 : -5.2	-1	17	-16	-1.0	0.5%
- O=[N+]([O-])c1cc(S(=O)(=O)C(F)(F)F)ccc1N1CCN(c2ccccc2)CC1
 : -3.2	u	26	-11	-0.4	3.4%
- CC(C)OC(=O)Cn1nc(C(F)(F)F)c2c1CCCC2
 : -0.8	5	3	-8	0.5	2.2%
- C=CCn1c(SCC(=O)NC2CC2)nc2sc(CC)cc2c1=O
 : 5.8	0	3	-8	0.4	-0.7%
- COc1ccc(-n2c(CNC(=O)c3ccc(S(=O)(=O)N4CCCC4)cc3)n[nH]c2=S)cc1
 : -3.9	2	6	-22	-0.4	2.3%[38.3 µM]

Arranged by SMILES length (low to high): 10 of the compounds above.
Each structure is followed by: D2 agonist	Six1-Eya2 inh	TRPML1 blocker	D2 potentiator	TRPML1 ag	PINK1 modulator
- O=C(NCCNC1CCCCC1)c1ccco1
 : -1.4	4	-16	-7	-0.1	0.6%
- COc1cc(CC(=O)O)c(C(C)=O)cc1OC
 : -0.9	10	-8	3	-0.6	-0.6%
- Cc1ccccc1OCC(=O)OCC(=O)NCC1CCCO1 (stereo unspecified)
 : 3.0	8	12	2	-0.2	4.8%
- CC(C)OC(=O)Cn1nc(C(F)(F)F)c2c1CCCC2
 : -0.8	5	3	-8	0.5	2.2%
- COc1ccc(S(=O)(=O)n2nc(OC(C)=O)cc2N)cc1
 : -2.2	-23	8	-3	-0.1	5.3%
- c1ccc(-c2nc(CSc3n[nH]c(-c4cccs4)n3)cs2)cc1
 : -3.8	-3	-2	-9	0.9	5.1%[38.3 µM]
- Cc1c(/C=N/n2cnnc2)c2ccccc2n1CCOc1ccc(Cl)cc1
 : 3.0	1	21	6	-0.7	2.5%
- COc1ccccc1C(=O)CC(=O)C(=O)Nc1cccc([N+](=O)[O-])c1C
 : 1.0	-3	x	3	x	7.2%
- CC(=O)c1cccc(NC(=O)C2CCCN(S(=O)(=O)c3cccc4cccnc34)C2)c1 (stereo unspecified)
 : -6.0	-1	33	3	0.8	2.2%
- CCN(C(=O)COC(=O)c1cc([N+](=O)[O-])ccc1N1CCCCC1)C1CCS(=O)(=O)C1 (stereo unspecified)
 : -5.0	7	-21	-7	-0.5	1.3%

Next structures.
Each structure is followed by: D2 agonist	Six1-Eya2 inh	TRPML1 blocker	D2 potentiator	TRPML1 ag	PINK1 modulator
- CCN=C(NCC)SC1CC(=O)N(c2cccc(OC)c2)C1=O (stereo unspecified)
 : -1.6	4	-3	-17	-0.3	8.1%[38.3 µM]
- O=C1CCCN1CCC1CCCCN1Cc1nc(-c2cnccn2)no1 (stereo unspecified)
 : -2.9	14	-5	-13	-0.7	-0.9%
- COc1cc(CN2CCCC(N3CCN(c4ccccc4C)CC3)C2)cc(Cl)c1O (stereo unspecified)
 : 4.0	-8	-2	-23	0.0	1.7%
- O=C(COc1ccc(F)cc1)Nc1ccccc1OCc1cc(=O)n2ccccc2n1
 : x	x	-9	x	0.9	-10%
- O=C(CSc1nc(=O)n2cc(Cl)ccc2n1)Nc1ccc2c(c1)OCO2
 : -1.8	-6	3	-14	-0.1	1.1%
- COc1ccc(O)c(-c2cn[nH]c2-c2cccs2)c1
 : -0.2	-12	13	2	0.2	2.2%
- O=C(c1ccco1)n1nc(-c2ccccc2)nc1NCc1ccccc1Cl
 : x	x	-9	x	-0.8	-0.5%
- C[C@H]1CN([C@@H](C)CO)C(=O)CCCn2cc(nn2)CO[C@@H]1CN(C)C(=O)Nc1cccc(Oc2ccccn2)c1
 : -2.4	4	48	-4	-0.6	0.5%
- Cc1nn(C)cc1/C=C1\CCC/C(=C\c2cn(C)nc2C)C1=O
 : 0.0	-1	-1	-7	-0.7	1.4%
- CN(C(=O)c1ccc(NC(=O)Cc2cccc(NC(=O)C3CCN(C(=O)C4CCCCC4)CC3)c2)cc1)C1CC1
 : -0.6	2	13	x	-0.4	-0.2%
- O=C(CCn1c(=O)oc2ccccc21)Nc1ccon1
 : -2.8	0	5	-1	-0.4	6.6%[38.3 µM]
- CCCCNc1c([N+](=O)[O-])cc(C)cc1[N+](=O)[O-]
 : 1.6	-67*	17	0	1.2	u
- CCCn1c(NCc2cc(C)ccc2O)nc2ccccc21
 : -2.1	-6	6	-26	1.3	-1.0%
- CCOC(=O)c1ccc(Nc2ncnc3c2cnn3C)cc1
 : 2.5	-1	21	4	0.4	1.0%[38.3 µM]
- COc1cc(NC(=O)c2nnn(CC(=O)Nc3ccccc3)c2N)cc(OC)c1
 : x	x	-1	x	0.2	u
- CCN(C(=O)COC(=O)c1c(NC(C)=O)sc(C)c1C)c1c(N)n(Cc2ccccc2)c(=O)[nH]c1=O
 : 0.0	-2	-10	2	-0.7	2.9%
- CN(c1ccccc1)S(=O)(=O)c1ccc(NC(=O)c2ccccc2)cc1
 : 0.8	1	-4	-9	0.0	-0.1%
